NPYLR7 agonist: activates Aedes aegypti NPYLR7 receptor; 270,000 tested, 0.15% active; HEK293T NPYLR7/Galpha15, GCaMP6s calcium fluorescence; AID 1259423; activation, % at 10 µM; in the data active means activation above about 40%;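 further: 0% = vehicle and 100% = reference agonist at the receptor; some compounds past the cut are filed as inactive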
NPYLR7 agonist max-min: also measured in NPYLR7 agonist; calls as there; activation, %; measured here: Max-Min RFU normalised activation; some inactives read as strong as hits;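 span of the calcium signal over five minutes; 0% = vehicle and 100% = native peptide agonist; compound fluorescence can raise it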
Numbers without * were called inactive; & = joins results of further samples.

#	compound	NPYLR7 agonist	NPYLR7 agonist max-min
1	Cc1cc(NC(=O)C2CCN(C(=O)C3c4ccccc4Oc4ccccc43)CC2)no1	-1	-3
2	CC1CC1C(=O)N(C)CC(=O)Nc1ccccc1Cl (stereo not given)	0	-1
3	O=C(NC1Cc2ccccc2C1)c1ccc2oc(Cc3ccccc3)nc2c1	6	4
4	CC(C)COC(=O)N1CCn2c(nnc2C(=O)NC2CCCCC2)C1	1	1
5	COc1ccc(OC)c(CN2CCC3(CC2)NC(=O)c2cccc(C)c2N3)c1	0	7
6	Cn1ccnc1CN(Cc1cc(=O)n2c3c(cccc13)CCC2)C1CC1	9	7
7	O=C(CNC(=O)c1ccccc1)N=Nc1c(O)[nH]c2ccc(Cl)cc12	2	0
8	Cc1cc(NC(=O)CCc2c(C)nn(-c3nc(C)c(C)c(=O)[nH]3)c2C)c2ccccc2n1	6	0
9	CC(C)(C)CC(NC(=O)Cc1ccc(S(N)(=O)=O)s1)c1ccccc1 (stereo not given)	5	0
10	O=C(c1cccc(F)c1)N(Cc1c(-c2ccccc2)noc1N1CCCC1)CC1CC1	2	1
11	O=C(C(Oc1ccc(Br)cc1Br)c1ccccc1)N1CCOCC1 (stereo not given)	5	3
12	CCOc1ccc(C(=O)Nc2c3c(nn2C(C)(C)C)CS(=O)C3)cc1 (stereo not given)	6	4
13	Cc1ccc(NC(C)(C(=O)NCCc2nnc(N)s2)c2ccccc2)cc1 (stereo not given)	6	3
14	O=C(c1ccc(NC2CCCCC2O)nc1)N1CCc2ccccc21 (stereo not given)	-5	-9
15	CC(=O)N1CCC(Oc2ccc(Cl)cc2C(=O)NC2(c3ccccc3)CC2)CC1	18	7
16	Cn1nnnc1SCc1cncc(Br)c1	13	12
17	COC(=O)c1ccc2c(c1)CC(CNC(=O)c1cc(C)oc1C)O2 (stereo not given)	16	25
18	O=C(C1CCCO1)N1CCC2(CC1)NCCc1[nH]cnc12 (stereo not given)	0	-3
19	CC(C)c1c(C(=O)N2CCCC2)cnn1Cc1ccccc1	-27	-24
20	COc1ccc(C(=O)C2CCCN(C(=O)c3ccc4oc(C)cc4c3)C2)c(C)c1 (stereo not given)	12	11

6 entries from above, screen by screen.
4	CC(C)COC(=O)N1CCn2c(nnc2C(=O)NC2CCCCC2)C1
10	O=C(c1cccc(F)c1)N(Cc1c(-c2ccccc2)noc1N1CCCC1)CC1CC1
12	CCOc1ccc(C(=O)Nc2c3c(nn2C(C)(C)C)CS(=O)C3)cc1 (stereo not given)
2	CC1CC1C(=O)N(C)CC(=O)Nc1ccccc1Cl (stereo not given)
9	CC(C)(C)CC(NC(=O)Cc1ccc(S(N)(=O)=O)s1)c1ccccc1 (stereo not given)
6	Cn1ccnc1CN(Cc1cc(=O)n2c3c(cccc13)CCC2)C1CC1
assay / compound | 4 | 10 | 12 | 2 | 9 | 6
NPYLR7 agonist | 1 | 2 | 6 | 0 | 5 | 9
NPYLR7 agonist max-min | 1 | 1 | 4 | -1 | 0 | 7

Excerpt: compounds 1–4
#	compound	NPYLR7 agonist	NPYLR7 agonist max-min
1	Cc1cc(NC(=O)C2CCN(C(=O)C3c4ccccc4Oc4ccccc43)CC2)no1	-1	-3
2	CC1CC1C(=O)N(C)CC(=O)Nc1ccccc1Cl (stereo not given)	0	-1
3	O=C(NC1Cc2ccccc2C1)c1ccc2oc(Cc3ccccc3)nc2c1	6	4
4	CC(C)COC(=O)N1CCn2c(nnc2C(=O)NC2CCCCC2)C1	1	1

Additional structures follow.
#	compound	NPYLR7 agonist	NPYLR7 agonist max-min
21	Cc1nc2c(C(=O)Nc3c(C)cnn3Cc3ccccc3Cl)cccc2[nH]1	7	17
22	CC(C)NC(=O)CSc1nnc(CCn2ccc(=O)[nH]c2=O)o1	15	8
23	Cc1ccc(-c2nnc(CSc3nnc(-c4cc(-c5ccccc5)nc5ccccc45)o3)o2)cc1	-8	-16
24	COc1ccc(C(C)C)cc1CN1CCN(c2ncnc3nc[nH]c23)CC1	1	4
25	c1ccc(C2CCCN(c3ncnc4c3CCNC4)CC2)cc1 (stereo not given)	9	8
26	COc1cccc(Cc2nsc(N3CCC(C(=O)N4CC5(C)CC4CC(C)(C)C5)CC3)n2)c1 (stereo not given)	-10	-15
27	C#CCOc1ccccc1CN(C)C1CCN(CC(F)(F)F)C1=O (stereo not given)	3	2
28	O=C(Nc1nc2c(s1)CCC2)c1ccc(Cl)c(N2CCCC2=O)c1	-2	-1
29	COCCOCC(=O)NCc1ccc(-c2ncc(-c3cccc(OC)c3)[nH]2)cc1	24	28
30	CCN(CCC#N)S(=O)(=O)CC1CCOC1 (stereo not given)	1	-6
31	CC(C)c1nc(C(=O)O)nn1-c1cccc(F)c1	2	-1
32	CSc1ccc(CC2(CCC(=O)N3CCCC3c3nc4ccc(F)cc4[nH]3)CCC(=O)N2)cc1 (stereo not given)	6	5
33	COc1ccc(CCNC(=O)C(C)(C)CC(=O)c2ccccc2)cc1OC	-9	-13
34	CCc1nnc(CN2CCc3onc(-c4cccc5ccccc45)c3C2)o1	5	5
35	O=C(c1cccc(F)c1)N(Cc1nccn1Cc1ccccc1Cl)CC1CCCO1 (stereo not given)	6	16
36	COc1c(F)cccc1C(=O)N1CCCC(CCc2ccc(F)cc2)C1 (stereo not given)	6	3
37	COc1ccc(-c2cc(C(=O)N3CCOCC3)c3ccccc3n2)cc1	3	1
38	Cc1cccnc1C1=NOC(Cc2ccccc2)C(=O)N1C (stereo not given)	10	1
39	CSc1nnc2c(n1)OC(/C=C/c1cccs1)Nc1ccccc1-2 (stereo not given)	0	-3
40	Cc1csc2nc(O)c(C(=O)NCCCN3CCCCC3C)c(=O)n12 (stereo not given)	-2	30
41	CCCn1c(CO)nc2ccccc21	-5	-9
42	CCOC(=O)C1=C(C)NC2=C(C(=O)CCC2)C1c1cc(Br)c(O)c(OC)c1 (stereo not given)	3	-2
43	COC(=O)c1cccc(NC(=O)c2c(-c3ccccc3Cl)noc2C)c1	0	-6
44	CN(c1ccccc1)S(=O)(=O)c1ccc(C(=O)NCc2cccnc2)cc1	-3	-3
45	CCN1CCN(C(=O)c2ccc(CSc3nnc(C)n3-c3ccc(OC)cc3)cc2)CC1	4	12
46	Fc1cc(Cl)cc(Oc2ccc3c(C4CC4)noc3n2)c1	9	5
47	Cc1ccc(C)c(Cn2c(=O)c3c(nc4n(CCCO)c(C)c(C)n34)n(C)c2=O)c1	-7	-9
48	O=C(Nc1cccc2c1C(=O)c1ccccc1C2=O)c1cc2ccccc2c(=O)o1	4	3
49	Cc1nc2n(n1)C(=O)C(C(c1ccc(Cl)cc1)N1CC(C)OC(C)C1)S2 (stereo not given)	0	-2
50	CCOC(=O)C1CCCN(C(=O)c2nn(-c3ccc(F)cc3)c(=O)n(Cc3ccccc3C)c2=O)C1 (stereo not given)	10	9
51	O=S(=O)(NC1CCCC1)c1ccc(NN=C2CCCCC2)nc1	17	12
52	O=C1CCCc2occ(C(=O)N3CCCC(OCc4cccnc4)C3)c21 (stereo not given)	4	4
53	CC(=O)OC(C)C[N+](C)(C)C (stereo not given)	1&14&38&40	-7&9&42&17
54	COc1ccccc1C(NC(=O)C1CCN(Cc2cccc(Cl)c2)CC1)c1ccccn1 (stereo not given)	6	6
55	COc1cccc(C(=O)N2CCCN(c3nc(C4CCOCC4)nc4c3cnn4-c3ccccc3)CC2)c1	-12	-1
56	Cc1ccc2c(c1)-c1c(s[s+]c1SC(=O)C(C)C)C(C)(C)N2	-2	6
57	O/N=C1/CCCc2c1[nH]c1ccc(Cl)cc21	5	5
58	O=C(CSc1nnc2sc3ccccc3n12)Nc1cccc(C(F)(F)F)c1	-1	0
59	Fc1cc(F)cc(-c2oncc2-c2nnnn2-c2ccccc2)c1	-1	1
60	O=C1NC(=S)SC1=Cc1ccc(F)c(F)c1	6	6
61	CCC/C=C/CN1CCN2C(=O)CN(C)C(=O)C2C1 (stereo not given)	13	0
62	COc1cc(OC)c(C2c3c(n[nH]c3-c3cccc([N+](=O)[O-])c3)OC(=N)C2C#N)c(OC)c1 (stereo not given)	-2	-7
63	Cn1ccnc1Sc1ncccc1[N+](=O)[O-]	1	0
64	O=C(c1cc(-c2ccccc2)no1)N1CC(c2ccncc2)C1	9	-8
65	Cc1ccsc1CN(C)C(=O)c1n[nH]c2ccccc12	17	9
66	COc1ccc(NS(=O)(=O)c2cccc(C(=O)Nc3ccccc3)c2)cc1	5	3
67	CCOc1ccc(N2C(=O)CSC2c2ccccc2NC(=O)c2cc(OC)cc(OC)c2)cc1 (stereo not given)	-2	5
68	CC(=O)Nc1ccc(S(=O)(=O)Oc2cccc(CN(Cc3ccco3)C(=O)c3cccc(F)c3)c2)cc1	24	29
69	CCC(C)C(NC(=O)Nc1ccccc1C(F)(F)F)C(=O)Nc1nnc(-c2ccc3c(c2)OCO3)s1 (stereo not given)	1	10
70	CC1(C)COC(CCOC(=O)NCCc2nc3ccccc3[nH]2)OC1	-3	-9
71	Cc1ccc(NC(=O)CSc2nc(=O)n3ccc(C)cc3n2)c(C)c1	2	1
72	O=C(/C=C/c1ccsc1)NC1CCCN(C(=O)c2ccccc2)C1 (stereo not given)	2	1
73	COc1cccc(Cc2nsc(N3CCN(C(=O)Nc4cccc(C#N)c4)C(C)C3)n2)c1 (stereo not given)	-5	5
74	COCCOc1ccc(CNS(=O)(=O)c2ccc(F)c(Cl)c2)cc1	1	-1
75	CC1CCCN(C(=O)Nc2cccc(Oc3ccc(C#N)cn3)c2)C1 (stereo not given)	-22	-24
76	O=C(N1CC(c2ccccn2)C1)C1(c2ccccc2)CC12CCCC2 (stereo not given)	0	0
77	CCC(CC)C(=O)N1CCN(c2ncccc2C(=O)NCCc2ccc(OC)c(OC)c2)CC1	15	9
78	CN(C)C(=O)CN(CCC(F)(F)F)C1CCC1	0	-4
79	Cc1nc(-c2ccccc2)nc(N2CCN(C(=O)c3cccs3)CC2)c1Cc1ccccc1F	1	5
80	COc1ccc(NC(=O)CN2CCc3onc(-c4ccccc4)c3C2)cc1	7	0

Next section
#	compound	NPYLR7 agonist	NPYLR7 agonist max-min
81	Cc1nc2c(c(N(C)Cc3cc(C4CC4)n[nH]3)n1)CCNC2	4	2
82	COC(=O)CSc1n[nH]c(-c2ccc(C)cc2)n1	-6	-9
83	O=S(=O)(NC1Cc2ccccc2C1N1CCCC(C(F)(F)F)C1)c1ccccc1 (stereo not given)	5	3
84	COc1ccccc1Oc1ncccc1CNC(=O)c1cc(C)oc1C	14	7
85	CCC(C(=O)Nc1ccc(-n2nc(OC(C)C)nc2-c2cccc(C(F)(F)F)c2)cc1)c1ccccc1 (stereo not given)	35	36
86	C=CCCC(=O)N1CCc2cc(OC)c(OC)cc2C1C(C)C (stereo not given)	14	3
87	COc1ccc(C2NCCc3c2[nH]c2ccccc32)cc1CSc1nnc(-c2ccccc2)o1 (stereo not given)	-4	4
88	Cc1ccc(-n2nc(C)cc2NC(=O)C2CCN(C(=O)C3CC3)CC2)cc1	1	0
89	Cc1cnnn1-c1ccc([N+](=O)[O-])cc1	5	4
90	CCNC(=O)[C@@H]1C[C@@H](N)CN1C(=O)c1cccc(-c2cn[nH]c2)c1	12	6
91	Cc1cc(CNC(=O)CSc2ccccn2)c2[nH]c(C)c(C)c2c1	8	3
92	CCC(C)CN(C)C(=O)NCc1ccc(OC)c(NC(C)=O)c1 (stereo not given)	3	1
93	C/C=C(\C)C(=O)Nc1c(-c2cccc(F)c2)cn(C)c1C(=O)OCC	15	22
94	COc1ccc(CNC(=O)CCC2CCCN(C(=O)CC3=CCCCC3)C2)c(OC)c1 (stereo not given)	4	0
95	O=C(NCC1CCCN(Cc2ccccn2)C1)c1cccc(C(F)(F)F)c1 (stereo not given)	11	2
96	COc1cc(Cl)ccc1C(=O)NCC1CCCN(C)C1 (stereo not given)	10	7
97	O=C(Nc1nc2c(Cl)cccc2s1)c1cnn2c(C(F)(F)F)cc(-c3ccccc3)nc12	3	1
98	COc1ccc(CCN(C)C(=O)C2CC2(c2ccccc2)c2ccccc2)cc1OC (stereo not given)	-14	-14
99	CC(C)Sc1nnc(-c2cccs2)n1CCC(N)=O	10	6
100	CCN(Cc1nc2cc(Cl)ccc2c(=O)[nH]1)C(=O)C(C)Oc1ccc(Cl)cc1 (stereo not given)	-1	0
101	O=C(c1ccc2c(c1)OCO2)C1CCCN(C2C3CC4CC(C3)CC2C4)C1 (stereo not given)	7	4
102	CN(Cc1ccccc1)C(=O)c1nc2ccccn2c1CNCCN1CCNC1=O	5	9
103	Cc1cccc(C(C(=O)N(C)Cc2ccco2)N(C)C)c1 (stereo not given)	9	3
104	CCc1nn2c(nnc3c(=O)n(-c4cccc(Cl)c4)ccc32)c1-c1ccccc1	4	2
105	Cc1nc(=O)[nH]c(C)c1CCC(=O)NC(C)c1cnn(C)c1 (stereo not given)	-4	-5
106	CCOC(=O)C1CCN(C(=O)c2ccc(CSc3nc(N(C)Cc4ccccc4)cc(C(F)(F)F)n3)cc2)CC1	11	0
107	CCC(C)c1ccccc1OCC(=O)NNC(=O)c1cccnc1 (stereo not given)	3	11
108	CCOC(=O)NC[C@H](Cc1ccc(OCCc2nc(-c3ccccc3)oc2C)cc1)N/C(C)=C\C(=O)c1ccc(C(F)(F)F)cc1	4	-7
109	Cc1ccc(C(=O)c2ccccc2C(=O)N2CCC(CN)C2)cc1 (stereo not given)	5	2
110	CC1(C(=O)NS(=O)(=O)c2cccc(F)c2)CCN1C(=O)C1(c2ccccc2)CCCC1 (stereo not given)	2	4
111	O=C(c1cccs1)N1CCN(C(=O)c2cccs2)CC1	0	-2
112	O=c1n(CCOc2ccccc2)nc(C2CCNCC2)n1-c1ccccc1	0	0
113	CCOC(=O)Cc1c(C)nc2ncnn2c1N1CCN(C(=O)c2c(-c3ccccc3)noc2C)CC1	22	10

Entries by screen from the entries so far.
NPYLR7 agonist max-min, compounds 103–109 → 3, 2, -5, 0, 11, -7, 2
NPYLR7 agonist, compounds 103–109 → 9, 4, -4, 11, 3, 4, 5

A portion of the library (hit frequency here may not be typical).
